AmpC nodet inh: AmpC beta-lactamase inhibition, detergent-free assay | AmpC nitrocefin hydrolysis, absorbance 480 nm, no detergent; potencies from a single point are estimates | P00811 | AID 585 | Potency, µM (top dose mostly 28.7 µM), for the others: at the top dose activity change, negative = inhibition | actives 1.8% (n = 71,000); active = falling curve, for most hits resting on a single point; inconclusive = weak or doubtful change; inactive = flat or rising curve; also: % of control where 0% means no effect; about half of the hits show no inhibition at the top dose; a quarter of the inactives give rising signals
Target sequence (P00811 whole entry, looked up): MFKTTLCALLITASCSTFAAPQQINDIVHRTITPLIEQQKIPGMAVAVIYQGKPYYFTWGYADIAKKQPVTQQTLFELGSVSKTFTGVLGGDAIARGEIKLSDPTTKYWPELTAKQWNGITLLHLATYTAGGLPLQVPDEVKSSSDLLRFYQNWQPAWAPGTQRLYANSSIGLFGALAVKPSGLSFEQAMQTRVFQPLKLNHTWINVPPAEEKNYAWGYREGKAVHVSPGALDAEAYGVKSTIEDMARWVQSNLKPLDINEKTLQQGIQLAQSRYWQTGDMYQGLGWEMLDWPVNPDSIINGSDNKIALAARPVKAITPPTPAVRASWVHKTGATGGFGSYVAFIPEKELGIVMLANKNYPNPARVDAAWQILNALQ
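AmpC in 20 mM phosphate buffer pH 7.0 was preincubated 15 min at room temperature with compounds. Nitrocefin (800 uM stock) was then added and hydrolysis followed at 480 nm every 20 s for 4 min.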
* hit, by the source's call; u = inconclusive; & = joins results of further samples; [ ] = dose if it differs, or a comment. Potency is read from the fitted curve at half-maximal effect. An excerpt. The share of hits here may be higher or lower than overall.

SMILES | AmpC nodet inh
COc1ccc(CCNC(=O)CCCn2c(=O)[nH]c3cc(OC)c(OC)cc3c2=O)cc1OC | 40%
O=C(Cc1ccc(-n2cccc2)cc1)NCc1cccs1 | u
COc1cccc(C(O)c2cnc(C(C)C)n2C)c1OC (stereo unspecified) | -2%
CC(=O)c1n[nH]nc1NC(=O)c1ccccc1 | -12%
COc1ccc(N2CC(C(=O)NCc3cccnc3)CC2=O)cc1 (stereo unspecified) | 0%
COCCNc1ncnc2ccc(-c3ccccc3C)cc12 | 73%
Clc1cccc(C=NC=Nc2cccc(Cl)c2)c1 | 5%
Cc1cc(C)n(-c2nc(SCC(=O)N3CCCC3)c3c4c(sc3n2)CCCC4)n1 | 131%
O=C(c1ccc(Cn2cc(Br)cn2)o1)n1cccn1 | -16%
CCOC(=O)c1sc(NCCNc2nc(C)c(C(=O)OCC)s2)nc1C | -5%
CN(C)c1ccc(-c2ccc3ncnc(N(C)C)c3c2)cc1 | 26%
COC(=O)c1ccc(C(NC(=O)OCc2ccccc2)/C(C)=C/[C@@H](C)C(=O)N[C@@H](CO)Cc2ccccc2)cc1 (stereo partly specified) | 14%
Cc1ccc2cc(C#N)c(N3CCCC3)nc2c1C | 21%
CCOc1ccccc1C(=O)n1nc2nc(C)cc(C)c2c1N | -2%
CCC(C)COC(=O)C(C#N)c1nc2ccccc2nc1N1CCCCC1 (stereo unspecified) | -2%
C[C@@H]1C[C@H](C)CN(S(=O)(=O)c2cc(Cl)c(Oc3ccc([N+](=O)[O-])cc3Cl)c(Cl)c2)C1 | -4%[5.75 µM]
O=C(O)Cc1ccc(O)c(O)c1 | 7%
CC(C)(C)NC(=O)CN(C(=O)CS(=O)CC(=O)Nc1ccc(F)cc1)c1ccccc1 (stereo unspecified) | 23%
O=c1c2ccccc2nc(-c2ccccc2)n1CCCn1ccnc1 | -14%
COc1ccc(OC)c(NC(=O)CN(c2ccc(C(C)C)cc2)S(=O)(=O)c2c(C)noc2C)c1 | 38%
OC(CNCCc1ccccc1)c1ccccc1 (stereo unspecified) | -1%
O=C(c1csnn1)N1CCC2(CCN(Cc3cc(C(F)(F)F)cc(C(F)(F)F)c3)CC2)CC1 | -5%
COc1ccc2nc3c(cc2c1)c(NC(=O)C1CCCO1)nn3CC(C)C (stereo unspecified) | 92%
CC1=C(C(=O)OCC2CCCO2)C(c2ccccc2OC(C)C)C2=C(CC(c3ccco3)CC2=O)N1 (stereo unspecified) | 67%
Cc1ccc(C(=O)Cn2nnc(-c3ccccc3-n3cnnn3)n2)cc1 | 6%

Next section
SMILES | AmpC nodet inh
O=C(O)CC(C(=O)NC1CCCCC1)C1CCCO1 (stereo unspecified) | -2%
CCCc1cc(=O)n2[nH]c(-c3cc(OC)c(OC)c(OC)c3)nc2n1 | 44%
O=S(=O)(NC1CC1)c1ccc(S(=O)(=O)N2CCN3CCCC3C2)cc1 (stereo unspecified) | 32%
COC(=O)c1c(NC(=O)COC(=O)Cn2cnc3ccccc32)sc(C)c1C | 92%
COc1cc2[nH]c(=O)n(CCCC(=O)NCCc3ccccc3)c(=O)c2cc1OC | 15%
CN1C(=O)C(O)(CC(=O)c2cccnc2)c2ccccc21 (stereo unspecified) | -8%
CCCCn1c(C(C)NC(=O)COC)nc2ccccc21 (stereo unspecified) | 10%
N#CCSc1nnc(Cc2cccs2)n1C1CCCCC1 | 17%
OC[C@H]1NC[C@@H](O)[C@@H](O)[C@H]1O | 9%
CC(C)Cn1c2c(c(O)c(C(=O)Nc3nccs3)c1=O)CCCC2 | 79%
O=C(O)CCN1C(=O)C2C3C=CC(C3)C2C1=O (stereo unspecified) | 0%
CCOC(=O)N1CCC(NC(=O)Cn2cccc2C(=O)c2ccccc2)CC1 | 25%
CC1(C)Cc2ccccc2-c2nnc(SCC(=O)N3CCc4ccccc43)n21 | 31%
COc1ccccc1N1CCN(C(=O)c2ccc(NC(C)=O)cc2)CC1 | 17%
O=C(COc1ccccc1)Nc1ccccc1C(=O)NCc1ccco1 | -14%
COc1ccc(-n2c(N3CCN(C)CC3)nc3sc4c(c3c2=O)CCCCC4)cc1 | 126%
O=P(/C(=N/O)N1CCCCC1)(N1CCOCC1)N1CCOCC1 | -8%
O=C(c1cc2nc(C3CC3)cc(C(F)(F)F)n2n1)N1CCCC1 | 9%
N#CCCn1c(=O)c(-c2ccc(F)cc2)nc2cnc(N3CCNCC3)nc21 | 31%
COc1cccc(CNc2ccc(F)c(Cl)c2)c1O | -18%
CC(=O)c1cc2c(cc1NC(=O)CN1CCN(C(=O)c3ccco3)CC1)OCO2 | 4µM*[single pt active]
COC(=O)c1nnn(-c2nonc2N)c1CSc1ccc(Cl)cc1 | -6%
c1ccc(C(c2ccccc2)N2CCN(Cc3nnnn3C3CCCC3)CC2)cc1 | 101%
O=C(NCc1ccco1)c1nnc(Cc2ccc(F)cc2)o1 | 4%
c1csc(-c2nn[nH]n2)c1 | -7%

Reformatted: 2 of the compounds above.
SMILES: COC(=O)c1ccc(C(NC(=O)OCc2ccccc2)/C(C)=C/[C@@H](C)C(=O)N[C@@H](CO)Cc2ccccc2)cc1 (stereo partly specified)
  AmpC nodet inh = 14%

SMILES: Cc1ccc2cc(C#N)c(N3CCCC3)nc2c1C
  AmpC nodet inh = 21%

Structures listed so far with two or more sulfur atoms:
SMILES | AmpC nodet inh
Cc1cc(C)n(-c2nc(SCC(=O)N3CCCC3)c3c4c(sc3n2)CCCC4)n1 | 131%
CCOC(=O)c1sc(NCCNc2nc(C)c(C(=O)OCC)s2)nc1C | -5%
O=S(=O)(NC1CC1)c1ccc(S(=O)(=O)N2CCN3CCCC3C2)cc1 (stereo unspecified) | 32%
N#CCSc1nnc(Cc2cccs2)n1C1CCCCC1 | 17%

The main list resumes, repeating the 5 entries before the break.
SMILES | AmpC nodet inh
CC(=O)c1cc2c(cc1NC(=O)CN1CCN(C(=O)c3ccco3)CC1)OCO2 | 4µM*[single pt active]
COC(=O)c1nnn(-c2nonc2N)c1CSc1ccc(Cl)cc1 | -6%
c1ccc(C(c2ccccc2)N2CCN(Cc3nnnn3C3CCCC3)CC2)cc1 | 101%
O=C(NCc1ccco1)c1nnc(Cc2ccc(F)cc2)o1 | 4%
c1csc(-c2nn[nH]n2)c1 | -7%
CCc1cc2cc3c(cc2nc1SCC(=O)N1CCN(C(=O)c2ccco2)CC1)OCO3 | 118%
O=C(O)C1C2C=CC(C2)C1C(=O)N1CCOCC1 (stereo unspecified) | -5%
Oc1ccc(Cn2cc[nH]c2=S)cc1 | -6%
COCCN1Cc2cccc(C(=O)Nc3ccccc3OC)c2C1=O | 7%
CCC1CCCCN1Cc1nc2c(c(=O)n(C)c(=O)n2C)n1CCCc1ccccc1 (stereo unspecified) | -3%
Cc1cc2cc3c(C)cc(=O)oc3c(C)c2o1 | 13%[12.8 µM]
CCCCCCC(=O)N(O)C1CC(=O)N(Cc2ccccc2)C1=O (stereo unspecified) | -5%
COc1ccc(-c2nc(SCC(=O)NCc3ccco3)c(-c3ccccc3)[nH]2)cc1OC | 29%
Cc1ccc(CSC2=Nc3ccccc3C3=NC(CCC(=O)NCc4ccco4)C(=O)N23)cc1 (stereo unspecified) | 137%
CCOC(=O)CSc1nc(N)nc(C)c1Br | 9%
CCc1nc(SCC(=O)NCCc2ccc(OC)c(OC)c2)c2c(=O)n(C)c(=O)n(C)c2n1 | 4%
O=C(O)C1C2C=CC(C2)C1C(=O)N1CCN(C/C=C/c2ccccc2)CC1 (stereo unspecified) | -13%
COc1ccc(C(c2nnnn2CCc2ccccc2)N2CCN(C)CC2)cc1OC (stereo unspecified) | 6%
COC(=O)c1ccc(OC)c(CSc2nnc(COc3ccc(Cl)cc3)o2)c1 | 0%
O=c1c(=O)n(O)c2ccccc2n1O | -1%
O=c1[nH]nc(Cc2ccccn2)c2ccccc12 | -1%
N[C@@H](COP(=O)(O)O)C(=O)O | 16%
C#CCn1c(=O)c2c(ncn2C)n(C)c1=O | -8%
Cc1cc2oc3c(c(=O)c2cc1C)C(c1cccc(Br)c1)N(Cc1ccco1)C3=O (stereo unspecified) | 41%
Cc1cccc(-n2c(CNC(=O)COc3ccccc3)nnc2SCC(=O)Nc2nccs2)c1 | 81%
Cc1cc(N2CCCC2)n2nc(C)c(-c3ccccc3)c2n1 | 12%
C=CCn1c(COc2ccccc2C)nnc1SCC(=O)O | -4%
O=C(Nc1ccc2nc[nH]c2c1)c1ccco1 | -13%
COCCn1nnnc1CN1CCC(O)(c2cccc(C(F)(F)F)c2)CC1 | 38%
Cc1ccc(C(=O)Nc2c(C)n(C)n(-c3ccccc3)c2=O)cc1S(=O)(=O)N1CCOCC1 | 4%

Following part
SMILES | AmpC nodet inh
COc1ccc(OC)c(S(=O)(=O)N(C)CC(=O)N2CCN(c3ccccc3)CC2)c1 | 82%
NC(=O)CC1NC(=O)c2ccccc21 (stereo unspecified) | -2%
CCOC(=O)c1c(C)oc2c(F)c(F)c(F)c(F)c2c1=O | -3%
CCOc1ccccc1NC(=O)CSc1nnc(-c2ccco2)n1Cc1ccco1 | 2%
C[C@@]12C[C@H](O)[C@@H]3[C@H](CCC4=CC(=O)CC[C@]43C)[C@H]1CC[C@@H]2c1csc(-c2ccccc2)n1 | -5%[5.75 µM]
O=C(CCCSc1nc2ccccc2s1)Nc1nccs1 | -13%
Cc1nnc(NC(=O)NC(C)N2C(=O)C3C4C=CC(C4)C3C2=O)s1 (stereo unspecified) | -12%
CCOC(=O)C1CCN(C(=O)Nc2ccccc2Cl)CC1 | 3%
Cc1nc2ccccc2c(=O)n1NS(C)(=O)=O | -10%
O=C(COc1ccc(Cl)cc1)Nc1ncccn1 | 1%
c1nc(COc2nsnc2N2CCOCC2)cs1 | 7%
CCOC(=O)Cc1c(C)nc(-c2ccccc2)[nH]c1=O | 2%
O=C(CN1C(=O)NC2(CCCCC2)C1=O)NCCC1=CCCCC1 | 7%
CCCCc1c(C(=O)O)cc(OC)cc1C(=O)O | 3%
O=C(NC1CC2CCCC(C1)N2Cc1cccs1)N1CCOCC1 (stereo unspecified) | 2%
CCC(=Nc1ccc2c(c1)CCC2)c1c(O)n(C)c(=O)n(C)c1=O | 25%
O=C(Nc1cccc2cccnc12)c1cccc(N2C(=O)CCC2=O)c1 | 30%
O=C(CN1C2CCC1CC(NC(=O)Nc1ccccc1)C2)NCc1ccco1 (stereo unspecified) | -4%
CCOC(=O)CNC(=O)Nc1cccc(Cl)c1C | -4%
O=S(=O)(c1cc(F)cc(F)c1)N1CCN(c2ncccn2)CC1 | -11%
c1ccc(CC2CCN(C(c3cccs3)c3nnnn3C3CCCC3)CC2)cc1 (stereo unspecified) | 10%
CCOC(=O)c1sc(N)c(C(=O)OCC)c1COC(=O)C1CC(=O)N(Cc2ccco2)C1 (stereo unspecified) | 53%
Cc1cc(C)c2nc(N3CCCC(C(=O)NCCN4CCOCC4)C3)sc2c1 (stereo unspecified) | 154%
COC(=O)[C@H](C)NC(=O)Nc1ccccc1C(F)(F)F | 10%
O=C(CN1CCOCC1)Nc1ccccc1NC(=O)C1CCN(c2ncccn2)CC1 | 9%

Following part
SMILES | AmpC nodet inh
Cc1noc(C)c1S(=O)(=O)N(CC(=O)NCc1ccc2c(c1)OCO2)c1ccc(C(C)C)cc1 | -9%
COc1ccc(N(CC(=O)Nc2ccc(F)c(Cl)c2)S(=O)(=O)c2c(C)noc2C)cc1 | -19%
CCOC(=O)c1c(C)c(C(=O)NCCCOC)c(C)n1C | 7%
COc1ccccc1NC(=O)N1CCCC1C(=O)Nc1ccc(NC(C)=O)cc1 (stereo unspecified) | -10%
CCN=C(NCC)SC1CC(=O)N(c2cccc(OCC)c2)C1=O (stereo unspecified) | 50%
CC(C)NS(=O)(=O)c1ccc(OCC(=O)Nc2ccccc2F)cc1 | 6%
CC1CCN(c2ncccc2C(=O)O)CC1 | -7%
Cc1c(CC(C)(C)C(=O)O)n(Cc2ccc(Cl)cc2)c2ccc(F)cc12 | -8%&-5%
Cc1ccc(N2CC(C(=O)OCC(=O)C(C)(C)C)CC2=O)cc1C (stereo unspecified) | 69%
CCCC(C(=O)NC1CCCCC1)N(Cc1ccco1)C(=O)CNS(=O)(=O)c1ccccc1 (stereo unspecified) | 15%
COc1cc2c(cc1NC(=O)COC(=O)C1CC(=O)N(Cc3ccco3)C1)oc1ccccc12 (stereo unspecified) | 54%
CCOC(=O)c1sc(NC(=S)n2cc(C)cn2)c(C(=O)OCC)c1C | -3%
O=C1CCC(C(=O)Nc2cccc(C(F)(F)F)c2)N1 (stereo unspecified) | 16%
CC(=O)Nc1ccc2c(c1)nc(CCN1CCN(C)CC1)n2C | -22%
c1ccc(CNc2nc3ccccc3n2CCN2CCOCC2)nc1 | -7%
N/C(Cn1nnc(-c2ccccc2)n1)=N\O | -13%
O=C(NCCSCc1ccco1)Nc1cccc(Cl)c1 | -8%
NC(=O)c1nn(-c2ccccc2)nc1N | 4%
CCOC(=O)N1CCC(c2nc3ccccc3[nH]2)CC1 | -5%

Assay outcomes as filed in PubChem.
